Calb biofilm kill – mixture kills Candida albicans biofilm cells | 0.02% of 120,000 active | C. albicans biofilm persisters + clotrimazole, fluorescence viability; primary screen in compound mixtures of four per well | inhibition, % at 7.6 µM | AID 1242;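 active means inhibition above 30.3% in the primary screen of four-compound pools, then above 30% when the compound was retested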;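 further: compounds exposed to preformed 24 h biofilms for 48 h; the number belongs to the whole pool; some results filed as inactive read as strong as hits; inactives centre near 12; 0% = biofilm with clotrimazole alone and 100% = kill control; retested singly at about 60 µM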
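Incubation: 24 h biofilm formation, then 48 h compound exposure, 37 °C | Material: C. albicans biofilms | Buffer or medium: RPMI/MOPS medium, pH 7.0 | Measured by: 2-h Alamar Blue fluorescence, 535/590 nm excitation/emission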
Starred values were filed as active, the others as inactive.

SMILES	Calb biofilm kill
CCOc1ccccc1NC(=O)c1c(Br)cnn1C	6
CC(=O)Nc1ccc(-c2csc(NCc3ccccc3)n2)cc1	4
CN(Cc1cn(-c2ccccc2)nc1-c1ccc(F)cc1)C(=O)CCC(=O)O	13
O=C(O)CC1c2ccccc2S(=O)(=O)N1Cc1ccccc1 (stereo unspecified)	12
CC1CCN(S(=O)(=O)c2cccc(C(=O)N(Cc3ccccc3)c3ccccn3)c2)CC1	6
Cc1cccc(CC2S/C(=N/N=C/c3ccco3)N(c3ccccc3)C2=O)c1 (stereo unspecified)	13
CN(C(=O)COc1ccc(Br)cc1Cl)C1CCCCC1	-8
COc1cc(/C=C/c2ccc3cccc(OC)c3n2)c(O)c([N+](=O)[O-])c1	10
CN1c2ccccc2C(=O)/C(=C\Nc2ccc(F)cc2F)S1(=O)=O	14
Cc1ccc(N(C(=O)Cn2nnc3ccccc32)C(C(=O)NCc2ccccc2)c2ccccn2)cc1 (stereo unspecified)	16
CC(NC(=O)CC(c1ccccc1)c1cc(Cl)ccc1O)c1ccccc1 (stereo unspecified)	8
O=C(Cc1cccs1)N/N=C/C=C/c1ccccc1	16
CN(C(=O)CCn1c(=S)oc2ccccc21)c1ccc(F)cc1	7
CCn1c(C)nc2cc(C(=O)N=Nc3c(O)[nH]c4c(C)cc(C)cc34)ccc21	10
Cc1ccc(NC(=O)/C=C/C(=O)O)c([N+](=O)[O-])c1	17
CCOC(=O)c1c(C)c(C(=O)NCc2ccco2)c(C)n1C	5
CC1(C)OC(=O)C(=CNCCc2ccc(O)cc2)C(=O)O1	13
CCCCN(CC)S(=O)(=O)c1ccc(C(=O)N=c2sc3cc(NC(C)=O)ccc3n2C)cc1	-1
CCc1ccc(C2c3[nH]c4ccccc4c3CCN2C(=O)c2cc[n+]([O-])cc2)cc1 (stereo unspecified)	27
O=C(O)CCC(NC(=O)C1CCCN1C(=O)OCc1ccccc1)C(=O)O (stereo unspecified)	63
O=C(NCCc1c[nH]c2ccccc12)C1CCN(S(=O)(=O)c2ccccc2F)CC1	12
O=C(Nc1ccc(N2CCOCC2)cc1Cl)C1CCN(C(=O)OCc2ccccc2)CC1	19
CCOc1ccc(C(=O)NCC(=O)OCc2c(C)noc2C)cc1	-1
Cc1ccc(-c2nc(-c3nccc4ccccc34)oc2-c2ccccc2)cc1	17
COC(=O)[C@@H](NC(=O)NCCC1=CCCCC1)C(C)C	14

Next part, overlapping the part above by 5 compounds.
SMILES	Calb biofilm kill
O=C(NCCc1c[nH]c2ccccc12)C1CCN(S(=O)(=O)c2ccccc2F)CC1	12
O=C(Nc1ccc(N2CCOCC2)cc1Cl)C1CCN(C(=O)OCc2ccccc2)CC1	19
CCOc1ccc(C(=O)NCC(=O)OCc2c(C)noc2C)cc1	-1
Cc1ccc(-c2nc(-c3nccc4ccccc34)oc2-c2ccccc2)cc1	17
COC(=O)[C@@H](NC(=O)NCCC1=CCCCC1)C(C)C	14
O=C(/C=C/c1ccc(Br)o1)NCc1ccccc1	14
N#CC1=C(N)SC(N)=C(C#N)C1C1C=CCCC1 (stereo unspecified)	8
Cc1[nH]c2ccccc2c1C(=O)CN1C(=O)C(=O)N(C2CCCC2)C1=O	11
Cc1ccc2cc(CN(CC3CCCO3)C(=S)NCc3ccco3)c(=O)[nH]c2c1C (stereo unspecified)	13
CC(C)CN1C(=O)C(=O)N(CC(=O)N2CCC(Cc3ccccc3)CC2)C1=O	9
O=c1cnnc(Nc2cccc(F)c2)[nH]1	2
CC(=O)N=c1n(C)c2ccccc2n1CCOc1ccccc1	11
O=c1cc(CN2CCC(Cc3ccccc3)CC2)nc2sccn12	13
COc1ccc2[nH]cc(CC(=O)O)c2c1	8
O=C(COc1ccccc1)Nc1ccc2c(c1)C(=O)N(CC1CCCO1)C2=O (stereo unspecified)	-23
CCCCCCN(C(=O)CCCCCN1C(=O)NC(c2ccc(-c3ccccc3)cc2)C(C(=O)OCc2ccccc2)=C1C)C(C(=O)NCCCC)c1ccc(-c2ccccc2)cc1 (stereo unspecified)	14
COc1ccccc1CNC(=O)COC(=O)c1ccc(Cl)c(N)c1	15
COC(=O)CC(CP(=O)(O)CN(C)C=O)C(=O)OC (stereo unspecified)	12
Cc1ccc(C(=O)NC(=S)Nc2ccc3[nH]c(=O)[nH]c3c2)cc1	28
O=[N+]([O-])c1ccc(NCc2ccccc2)nc1	9
CC(=O)C(Sc1nnnn1-c1ccccc1)C(C)=O	8
Cn1c(=O)c2c(ncn2CC(=O)N2CCN(c3ccc([N+](=O)[O-])cc3)CC2)n(C)c1=O	7
Cc1ccsc1/C=N/NC(=O)c1ccc2nc[nH]c2c1	3
O=C(O)CCCCCN1C(=O)/C(=C\c2cn(-c3ccccc3)nc2-c2cccs2)SC1=S	15
CC(C)CN(CCNC(=O)CN1C(=O)CSc2ccc(S(=O)(=O)N3CCOCC3)cc21)CC(C)C	15
COc1cc(/C=N/n2cnnc2)ccc1OS(=O)(=O)c1ccccc1[N+](=O)[O-]	25
Cc1cc(Nc2cc(F)ccc2C)n2nc(C)nc2n1	2
CCc1ccc(Sc2cc(C(=O)NCCN3CCOCC3)c3ccccc3n2)cc1	10
CCCn1nc(C(=O)OCn2nnc3ccccc3c2=O)c2ccccc2c1=O	14
Cc1ccc(N(C)S(=O)(=O)c2cccc(C(=O)Oc3ccc4c(C)cc(=O)oc4c3)c2)cc1	14

Next entries
SMILES	Calb biofilm kill
NC(N)=Nc1nc(CSCC/C(N)=N/S(N)(=O)=O)cs1	9
C/C(=N\NC(=O)c1ccc(OC2OCCOC2Oc2ccc(C(=O)N/N=C(\C)c3ccncc3)cc2)cc1)c1ccncc1 (stereo unspecified)	10
Cc1nnsc1Sc1ccccc1C(=O)O	6
Cc1ccn2c(C(=O)N/N=C\c3ccc4c(c3)OCO4)c(C)nc2c1	19
O=C(N/N=C/c1cnc2ccccc2n1)c1cccc(F)c1	15
O=C(Nc1cccc2ccccc12)c1ccc([N+](=O)[O-])s1	19
COc1ccc(N2CCN(C(=O)CCc3ccc(S(=O)(=O)NC(C)(C)C)cc3)CC2)cc1	9
COCC(=O)NC1CCN(CC(=O)Nc2ccccc2[N+](=O)[O-])CC1	12
O=[N+]([O-])c1ccc(-c2csc(N3CCc4ccccc4C3)n2)cc1	18
C/C(=N\NC(=O)COc1ccccc1-c1ccccc1)c1cccnc1	3
CC1=C(C(=O)NCc2ccccc2)C(c2cc(Br)cc(Br)c2OC(C)C)NC(=O)N1 (stereo unspecified)	13
CCOc1ncccc1C(=O)NCCN1C(=O)S/C(=C/c2cccs2)C1=O	-1
CCC(C)(C)NC(=O)c1cccc(NC(=O)C(C)C)c1	18
COc1ccccc1/C=N/OC(=O)c1ccc(C)cc1	13
CCOc1ccc(NC(=O)CSc2nnc(Cn3cnc([N+](=O)[O-])n3)n2C)cc1	12
CC1C=CCC2C(=O)N(c3cc(Cl)ccc3O)C(=O)C12 (stereo unspecified)	15
COc1ccccc1/C=C/C(=O)OCC(=O)NCc1ccco1	15
NC(Cc1c[nH]c2ccccc12)C(=O)NCc1ccco1 (stereo unspecified)	21
Cc1cc(NC(=O)NC2(C(F)(F)F)Oc3ccc(Cl)cc3O2)no1 (stereo unspecified)	9
CC(CCc1ccccc1)NC(=O)CN1CCN(c2ccc(O)cc2)CC1 (stereo unspecified)	5
N/C(=N\OC(=O)c1cccc2ccccc12)c1cccnc1	24
Nc1c2nc(-c3ccccc3)[nH]c(=O)c2nc(=O)n1-c1ccccc1	12
COc1ccccc1C(=O)NNC(=S)Nc1ccccc1	7
Cc1ccc(SCC(=O)c2c(C)nc3ccccn23)cc1	7
CC/C(=N\n1nnnc1Nc1ccccc1)c1ccccc1	15

(listing goes on)
SMILES	Calb biofilm kill
CO/N=C/C(C#N)=C/c1cc(C(=O)c2ccc(F)cc2)cn1C	15
COc1ccc(C(C)(C)C)cc1NC(=O)CCCn1c(=O)oc2ccccc21	11
Cc1ccc(C)c(NC(=S)N2CCCCC2CO)c1 (stereo unspecified)	5
COc1ccc(C(=O)NCc2ccc3c(c2)CCO3)cc1	-3
Cc1ccc(C(=O)Nc2cccnc2Oc2ccc(Cl)cc2)cc1	1
O=C(NCc1cccs1)c1cc(S(=O)(=O)N2CCCCC2)ccc1Cl	14
O=C(c1[nH]ncc1-c1cccc(Br)c1)C1CO1 (stereo unspecified)	15
O=C(Oc1cccc(/C=N/Nc2nc(Nc3ccccc3)nc(N3CCOCC3)n2)c1)c1ccco1	-2
Cc1cc(C)nc(NC(=S)Nc2cccc(F)c2)c1	13
Cc1onc(-c2c(Cl)cccc2Cl)c1C(=O)NCc1cccs1	18
O=C(Cc1ccccc1)NNC1CC(=O)N(c2ccc(Cl)cc2)C1=O (stereo unspecified)	10
CS(=O)(=O)NCc1nnc(SCc2c(F)cccc2Cl)o1	-1
COc1ccc(NS(=O)(=O)c2cc(S(C)(=O)=O)ccc2C)cc1	5
CCn1nc(C)c(NC(=O)CC23CC4CC(CC(C4)C2)C3)c1C	4
Cc1nc2ccccn2c1/C(O)=C1\C(=O)C(=O)N(CCN(C)C)C1c1ccco1 (stereo unspecified)	23
Cc1nc2ccc(F)cc2cc1C(=O)Nc1ccc(Cl)c(Cl)c1	9
CCOC(=O)C1C(=O)NC(c2ccccc2)=NC1c1ccc(Br)cc1 (stereo unspecified)	17
COc1ccc(OCC(=O)NCCCN2CCOCC2)cc1	-2
Cc1ccc(CNC(=O)c2cc(-c3cc(C)cc(C)c3O)n[nH]2)cc1	30
CCCN(CC(=O)Nc1cccc(Br)c1)CC(=O)Nc1ccc(F)c(F)c1F	18
CC(C)(C)S(=O)(=O)c1ccsc1C(=O)O	4
CC(C)(C)N(CC#CCC(O)(c1ccccc1)c1ccccc1)CCO	11
C=C(C)C(=O)NC1=NN(c2ccccc2)C(=O)C1	10
COC(=O)N/N=C/c1cn(Cc2ccccc2F)c2ccccc12	15
O=C(O)Cc1ccc(NC(=S)Nc2ccc(Br)cc2Cl)cc1	17

The listing continues.
SMILES	Calb biofilm kill
O=C1N/C(=N/O)S/C1=C/c1cccnc1	14
Cc1oc(-c2cc(F)cc(F)c2)nc1CN1CCSCC1	8
N#Cc1ccc(OCC(=O)NCC2(N3CCCCC3)CCCCC2)cc1	1
COc1ccc(/C=N/NC(=O)c2ccc(COc3cccc4cccnc34)cc2)cc1O	5
Cc1ccc(C(CCN(Cc2ccccc2)C(=O)c2ccco2)c2ccco2)cc1 (stereo unspecified)	19
COc1ccc(C=O)cc1Cn1ccnc1	19
Nc1c(C(=O)NCc2cccs2)nnn1CC(=O)Nc1cccc(Cl)c1	14
CCC[N+]1(CC#CC2(O)CCCCC2)CCOCC1	20
Cc1cc2cccc(C)c2nc1SCC(=O)NNC(=O)c1ccco1	14
COC(=O)c1cc2ccsc2n1Cc1ccccc1F	23
COc1ccc(NC(=O)CN(C)CC(=O)Nc2cccc(S(=O)(=O)N(C)c3ccccc3)c2)cc1	19
CC(=O)N(C(C)=O)S(=O)(=O)c1ccc(N=NN2CCCCC2)cc1	11
CCOc1ncccc1C(=O)Nc1nnc(C2CC2)s1	11
Cc1ccc2[nH]c3nc(SCCN4CCOCC4)nnc3c2c1	12
CCc1ccc(NC(=S)N(CCN(C)C)C(C)c2ccncc2)cc1 (stereo unspecified)	13
Cc1cc(C(=O)Cn2c(CO)nc3ccccc32)c(C)n1C	20
CC(=O)Nc1ccc(/C=C(\C#N)C(=O)NC2CCCCC2)cc1	3
COc1cc(C=O)ccc1Oc1nnnn1-c1ccccc1	0
Cn1c2ccccc2c(=O)c2c(=O)n(-c3ccc(F)cc3)c(-c3cccs3)nc21	5
CCN(CC)c1ccc(NC(=O)c2cnccn2)cc1S(=O)(=O)Nc1ccc(OC)cc1	8
Cn1c(CCNC(=O)C2CCCCC2)nc2cc([N+](=O)[O-])ccc21	-1
CC(NC(=O)COC(=O)CCc1nc(=O)c2ccccc2n1C)c1ccccc1 (stereo unspecified)	15
O=C(COC(=O)c1ccc2ccccc2c1O)NCC(F)(F)F	29
COc1ccc(C(=O)NC(=S)Nc2ccc(N3CCCC3)cc2)cc1	20
O=C(CSc1nc(-c2ccc(F)cc2)cc(C(F)(F)F)n1)NCc1cccs1	17

Filtered by structure, the entries above containing a nitro group on carbon
SMILES	Calb biofilm kill
COc1cc(/C=C/c2ccc3cccc(OC)c3n2)c(O)c([N+](=O)[O-])c1	10
Cc1ccc(NC(=O)/C=C/C(=O)O)c([N+](=O)[O-])c1	17
O=[N+]([O-])c1ccc(NCc2ccccc2)nc1	9
Cn1c(=O)c2c(ncn2CC(=O)N2CCN(c3ccc([N+](=O)[O-])cc3)CC2)n(C)c1=O	7
COc1cc(/C=N/n2cnnc2)ccc1OS(=O)(=O)c1ccccc1[N+](=O)[O-]	25
O=C(Nc1cccc2ccccc12)c1ccc([N+](=O)[O-])s1	19
COCC(=O)NC1CCN(CC(=O)Nc2ccccc2[N+](=O)[O-])CC1	12
O=[N+]([O-])c1ccc(-c2csc(N3CCc4ccccc4C3)n2)cc1	18
CCOc1ccc(NC(=O)CSc2nnc(Cn3cnc([N+](=O)[O-])n3)n2C)cc1	12
Cn1c(CCNC(=O)C2CCCCC2)nc2cc([N+](=O)[O-])ccc21	-1

Other entries follow.
SMILES	Calb biofilm kill
CC(=O)N1CC=CC1(CC(C)C)C(=O)NCCc1c[nH]c2ccccc12 (stereo unspecified)	12
O=[N+]([O-])c1ccc(CSc2ccc(-c3ccccn3)nn2)cc1	19
Cc1ccc(-c2nn3cnnc3c3ccccc23)cc1C	15
CC1(C(=O)NCCCNc2ncc(C(F)(F)F)cc2Cl)C=CCN1C(=O)c1ccccc1 (stereo unspecified)	16
COc1ccc(NC(=O)CN(C)S(=O)(=O)c2ccc(C)cc2)c([N+](=O)[O-])c1	17
COC(=O)Nc1nnc(/C=C/c2ccc(OC)cc2)s1	-10
COc1ccccc1CN1CCN(Cc2nc(Cc3ccccc3)no2)CC1	7
C=CCNCC(=O)Nc1sc2c(c1C(=O)Nc1ccc(OC)cc1OC)CCC2	9
CCOc1ccc(CC(=O)Nc2ccc(NC(=O)c3ccco3)cc2)cc1OCC	13
Fc1ccc(CSc2nnc(-c3cccnc3)o2)cc1	0
CC(C)c1ccc(CN2CCN(C(=O)CCl)CC2)cc1	13

Screening data as filed in PubChem.

This is a subset. The share of hits here may be higher or lower than overall.
